Source: PubChem BioAssay
T. gondii HeLa – T. gondii ME49Luc in HeLa cells, luciferase assay, 72 h, no IFN-y (AID 1259421); T. gondii ME49Luc in HeLa, luciferase, 72 h, no IFN-y; hits give low values; reference of the scale and settings of repeat entries not given here; many of its hits are not listed in these tables; activity change, negative = inhibition, %; actives 9.6% (n = 6,400);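 active means activity change below -70%; inconclusive means fit judged invalid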;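 further: about 20 µM from a 10 mM stock diluted 500-fold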
An asterisk follows results filed as active; ? = inconclusive; & = joins results of further samples; ! = not active in a repeat. Not all compounds are listed (hit frequency here may not be typical).

> Cn1c(=O)n(-c2ccc(C(C)(C)C#N)cc2)c2c3cc(-c4cnc5ccccc5c4)ccc3ncc21
  T. gondii HeLa = 13
> CCc1nc(-c2cccc(C)c2)c(-c2ccnc(NC(=O)c3ccccc3)c2)s1
  T. gondii HeLa = -91*
> CC(C)(C)CC(=O)OCC(=O)[C@@]1(O)CCC2C3CCC4=CC(=O)C=C[C@]4(C)C3[C@@H](O)C[C@@]21C (some centres not stated)
  T. gondii HeLa = -8
> O=C(Nc1ccccc1Br)N[C@@H]1CCN(c2ccc(C(F)(F)F)cn2)C1
  T. gondii HeLa = 4
> C=CCNc1nc(NCC=C)nc(N2CCN(C(c3ccc(F)cc3)c3ccc(F)cc3)CC2)n1
  T. gondii HeLa = -61
> CCc1cncnc1N1CCN(Cc2nc3ccc(C(F)(F)F)cc3[nH]2)CC1
  T. gondii HeLa = 1
> c1cncc(CN2CCC(n3ncc4c(N5CCOCC5)nc(-c5ccc6[nH]ccc6c5)nc43)CC2)c1
  T. gondii HeLa = -78*
> CCOC(=O)NNc1nncc2ccccc12
  T. gondii HeLa = -2&1
> NCCNC(=O)c1ccc(Cl)cn1
  T. gondii HeLa = 6&0
> COc1c(O)cc2c(c1O)[C@H]1O[C@H](CO)[C@@H](O)[C@H](O)[C@@H]1OC2=O
  T. gondii HeLa = -5
> OCc1ccccn1
  T. gondii HeLa = 2
> O=C(Nc1ncc(SCCN2CCCC2)s1)[C@]1(c2ccc(S(=O)(=O)C3CC3)cc2)C[C@H]1C1CCCCC1
  T. gondii HeLa = -76*!
> CCC(=O)O[C@]1(C(=O)SCF)[C@H](C)C[C@H]2[C@@H]3C[C@H](F)C4=CC(=O)C=C[C@]4(C)[C@@]3(F)[C@@H](O)C[C@@]21C
  T. gondii HeLa = 0
> CCCCCC(=O)O[C@]1(C(C)=O)CCC2C3CCC4=CC(=O)CC[C@]4(C)C3CC[C@@]21C (some centres not stated)
  T. gondii HeLa = -77*
> Cc1cccc(Nc2cc(Cl)nc(SCC(=O)O)n2)c1C
  T. gondii HeLa = 6&10

> O=C(Nc1ccccc1)Nc1ccc(-c2ccc(C(=O)[C@@H]3CCC[C@@H]3C(=O)O)cc2)cc1
  T. gondii HeLa = 16
> CC1(C)[C@@H](O[C@H]2O[C@H](C(=O)O)[C@@H](O)[C@H](O)[C@@H]2O[C@@H]2O[C@H](C(=O)O)[C@@H](O)[C@H](O)[C@H]2O)CC[C@@]2(C)[C@H]3C(=O)C=C4[C@@H]5C[C@@](C)(C(=O)O)CC[C@]5(C)CC[C@@]4(C)[C@]3(C)CC[C@@H]12
  T. gondii HeLa = 6
> Oc1cc2c(cc1O)[C@@H]1c3ccc(O)c(O)c3OC[C@]1(O)C2
  T. gondii HeLa = -15
> Nc1c2c(nc3ccccc13)CCCC2O (configuration not stated)
  T. gondii HeLa = 9
> CC(=O)Nc1ncc([N+](=O)[O-])s1
  T. gondii HeLa = 12&12&20
> CC[C@@H]1C(=O)N(C)c2cnc(Nc3ccc(C(=O)NC4CCC(N5CCN(CC6CC6)CC5)CC4)cc3OC)nc2N1C(C)C (some centres not stated)
  T. gondii HeLa = -84*
> COc1cc(NC(=O)c2ccc(-c3ccc(Cl)cc3)o2)cc(OC)c1
  T. gondii HeLa = 16
> O=C(CS(=O)Cc1ccco1)NC/C=C\COc1cc(CN2CCCCC2)ccn1 (configuration not stated)
  T. gondii HeLa = 9
> CN(C)CC(=O)Nc1ccc2[nH]c(=O)c3ccccc3c2c1
  T. gondii HeLa = -5
> CCOc1ccc(Cc2cc([C@@]34OC[C@@](CO)(O3)[C@@H](O)[C@H](O)[C@H]4O)ccc2Cl)cc1
  T. gondii HeLa = 12
> Cc1cc(C)cc(OCC2CNC(=O)O2)c1 (configuration not stated)
  T. gondii HeLa = 5&-4
> COc1cc2ncnc(Oc3cccc(NC(=O)Nc4cc(C(C)(C)C(F)(F)F)on4)c3)c2cc1OC
  T. gondii HeLa = -78*
> CC[C@@]1(O)C(=O)OCc2c1cc1n(c2=O)Cc2c-1nc1cc(F)c(C)c3c1c2[C@@H](N)CC3
  T. gondii HeLa = -90*
> CCn1cc(C(=O)O)c(=O)c2cc(F)c(N3CCNCC3)nc21
  T. gondii HeLa = 10&7
> C#CCC(Cc1cnc2nc(N)nc(N)c2n1)c1ccc(C(=O)N[C@@H](CCC(=O)O)C(=O)O)cc1 (some centres not stated)
  T. gondii HeLa = -67

Some of the entries above in a different format:
SMILES | T. gondii HeLa
CCC(=O)O[C@]1(C(=O)SCF)[C@H](C)C[C@H]2[C@@H]3C[C@H](F)C4=CC(=O)C=C[C@]4(C)[C@@]3(F)[C@@H](O)C[C@@]21C | 0
CCCCCC(=O)O[C@]1(C(C)=O)CCC2C3CCC4=CC(=O)CC[C@]4(C)C3CC[C@@]21C (some centres not stated) | -77*
Cc1cccc(Nc2cc(Cl)nc(SCC(=O)O)n2)c1C | 6&10
O=C(Nc1ccccc1)Nc1ccc(-c2ccc(C(=O)[C@@H]3CCC[C@@H]3C(=O)O)cc2)cc1 | 16
CC1(C)[C@@H](O[C@H]2O[C@H](C(=O)O)[C@@H](O)[C@H](O)[C@@H]2O[C@@H]2O[C@H](C(=O)O)[C@@H](O)[C@H](O)[C@H]2O)CC[C@@]2(C)[C@H]3C(=O)C=C4[C@@H]5C[C@@](C)(C(=O)O)CC[C@]5(C)CC[C@@]4(C)[C@]3(C)CC[C@@H]12 | 6
Oc1cc2c(cc1O)[C@@H]1c3ccc(O)c(O)c3OC[C@]1(O)C2 | -15
Nc1c2c(nc3ccccc13)CCCC2O (configuration not stated) | 9
CC(=O)Nc1ncc([N+](=O)[O-])s1 | 12&12&20
CC[C@@H]1C(=O)N(C)c2cnc(Nc3ccc(C(=O)NC4CCC(N5CCN(CC6CC6)CC5)CC4)cc3OC)nc2N1C(C)C (some centres not stated) | -84*
COc1cc(NC(=O)c2ccc(-c3ccc(Cl)cc3)o2)cc(OC)c1 | 16
O=C(CS(=O)Cc1ccco1)NC/C=C\COc1cc(CN2CCCCC2)ccn1 (configuration not stated) | 9
CN(C)CC(=O)Nc1ccc2[nH]c(=O)c3ccccc3c2c1 | -5
CCOc1ccc(Cc2cc([C@@]34OC[C@@](CO)(O3)[C@@H](O)[C@H](O)[C@H]4O)ccc2Cl)cc1 | 12
Cc1cc(C)cc(OCC2CNC(=O)O2)c1 (configuration not stated) | 5&-4
COc1cc2ncnc(Oc3cccc(NC(=O)Nc4cc(C(C)(C)C(F)(F)F)on4)c3)c2cc1OC | -78*
CC[C@@]1(O)C(=O)OCc2c1cc1n(c2=O)Cc2c-1nc1cc(F)c(C)c3c1c2[C@@H](N)CC3 | -90*

The results go on.
> O=C(N[C@@H]1CC[C@@H](c2cccc(F)c2F)CN(CC(F)(F)F)C1=O)N1CCC(n2c(=O)[nH]c3ncccc32)CC1
  T. gondii HeLa = 6
> COc1ccc2nc(NC(=O)Nc3ccccc3)sc2c1
  T. gondii HeLa = 440
> CN1CCN(C2CCN(C(=O)Nc3cc(Oc4ccc(NC(=O)C5(C(=O)Nc6ccc(F)cc6)CC5)c(F)c4)ccn3)CC2)CC1
  T. gondii HeLa = -67
> O=c1cc(-c2ccc(O)cc2)oc2cc(O[C@@H]3O[C@H](CO)[C@@H](O)[C@H](O)[C@H]3O[C@@H]3OC[C@](O)(CO)[C@H]3O)cc(O)c12
  T. gondii HeLa = -2
> CC(C)n1nc(-c2ccc3oc(N)nc3c2)c2c(N)ncnc21
  T. gondii HeLa = -74*
> COc1ccc(-c2cc(=O)c3c(O)c(OC)c(OC)c(OC)c3o2)cc1OC
  T. gondii HeLa = -10
> CN(C)N(C)C(=O)[C@@]1(Cc2ccccc2)CCCN(C(=O)[C@@H](Cc2c[nH]c3ccccc23)NC(=O)C(C)(C)N)C1
  T. gondii HeLa = 17
> Cc1cccc(C)c1NC(=O)C1CCCCN1C (configuration not stated)
  T. gondii HeLa = 6&10
> CC(C)Oc1ccc(-c2cnc3c(-c4ccnc5ccccc45)cnn3c2)cc1
  T. gondii HeLa = -49
> CN[C@H]1CN(c2ccc3c(=O)c(C(=O)O)cn(-c4nccs4)c3n2)C[C@@H]1OC
  T. gondii HeLa = -27
> COc1ccc(-c2cnc3c(-c4cccc5ncccc45)cnn3c2)cc1
  T. gondii HeLa = 3
> Cc1cc2c(cc1CC(=O)c1sccc1S(=O)(=O)Nc1onc(C)c1Cl)OCO2
  T. gondii HeLa = 23
> CCCC(=O)O[C@@]1(C(=O)COC(C)=O)CC[C@H]2[C@@H]3C[C@H](F)C4=CC(=O)C=C[C@]4(C)[C@]3(F)[C@H](O)C[C@@]21C
  T. gondii HeLa = 6
> COc1cccc(-c2ccc([C@@H](Oc3cc(-c4ccc(C[C@H](N)C(=O)O)cc4)nc(N)n3)C(F)(F)F)cc2)c1
  T. gondii HeLa = 22
> N#Cc1ccc2[nH]cc(CCCCN3CCN(c4ccc5oc(C(N)=O)cc5c4)CC3)c2c1
  T. gondii HeLa = 11

> COc1ccccc1OCCNCC(O)COc1cccc2[nH]c3ccccc3c12 (configuration not stated)
  T. gondii HeLa = 11&-11
> Cc1ccc2nc(NCCN)c3ncc(C)n3c2c1
  T. gondii HeLa = -4
> NS(=O)(=O)c1cc(-c2nn[nH]n2)c(NCc2cccs2)cc1Cl
  T. gondii HeLa = 4
> Cn1c(=O)c2c(ncn2CCO)n(C)c1=O
  T. gondii HeLa = 27&3
> C[C@@H]([C@@H](O)c1ccc(O)cc1)N1CCC(O)(c2ccccc2)CC1
  T. gondii HeLa = 9&0
> O=C(O)Cn1nnc(-c2cc(N3CCC(Oc4cc(F)ccc4Br)CC3)no2)n1
  T. gondii HeLa = 17
> CCCC[C@@H](CC)COC(=O)c1ccccc1O
  T. gondii HeLa = 4&17
> CN(C)C(=O)[C@H](O)[C@H](Cc1ccccc1)NC(=O)c1cc2cc(Cl)ccc2[nH]1
  T. gondii HeLa = 13
> COC(=O)N1CCN(Cc2cccc(NC(=O)Nc3ccc(C)nc3)c2F)CC1
  T. gondii HeLa = 9
> COc1ccc(-c2cc(=O)c3c(OC)c(OC)c(OC)cc3o2)cc1OC
  T. gondii HeLa = -3
> COc1cccc2c1c(O)c(C(=O)N(C)c1ccc(C(F)(F)F)cc1)c(=O)n2C
  T. gondii HeLa = 15
> C[C@H](Nc1ncnc2nc[nH]c12)c1cc2cccc(Cl)c2c(=O)n1-c1ccccc1
  T. gondii HeLa = 8
> COc1ccc(NS(=O)(=O)c2sc3ccc(Cl)cc3c2C)cc1N1CCNCC1
  T. gondii HeLa = 0
> CN(C)C(=O)c1ccc(S(=O)(=O)c2ccc(NC(=O)C(C)(O)C(F)(F)F)c(Cl)c2)cc1 (configuration not stated)
  T. gondii HeLa = -6
> O=C(Nc1c(-c2cccs2)nc2ccccn12)c1ccc(Cl)cc1
  T. gondii HeLa = 7

Overlap with the part before: 3 entries, then new ones.
> COc1ccc(NS(=O)(=O)c2sc3ccc(Cl)cc3c2C)cc1N1CCNCC1
  T. gondii HeLa = 0
> CN(C)C(=O)c1ccc(S(=O)(=O)c2ccc(NC(=O)C(C)(O)C(F)(F)F)c(Cl)c2)cc1 (configuration not stated)
  T. gondii HeLa = -6
> O=C(Nc1c(-c2cccs2)nc2ccccn12)c1ccc(Cl)cc1
  T. gondii HeLa = 7
> COc1ccc(CN2CCN(C(c3ccc(F)cc3)c3ccc(F)cc3)CC2)c(OC)c1OC
  T. gondii HeLa = -30
> O=C(Nc1ccc(C(=O)O)c(O)c1)c1ccccc1
  T. gondii HeLa = 18&-8
> COc1cc(C(=O)O)ccc1NC(=O)[C@@H]1N[C@@H](CC(C)(C)C)[C@](C#N)(c2ccc(Cl)cc2F)[C@H]1c1cccc(Cl)c1F
  T. gondii HeLa = ?
> O=P(O)(O)OC(CO)CO
  T. gondii HeLa = 38
